Source: PubChem (National Center for Advancing Translational Sciences (NCATS))
HPGD inh: blocks human HPGD enzyme activity; P15428; purified HPGD, NADH fluorescence kinetic, PGE2 substrate; Potency, µM, for inactives: at the top dose activity change, negative = inhibition, hits mostly inhibitors; 150,000 compounds, 4.3% hits; AID 894; active = well fitted inhibition curve with a large enough effect (not every such curve was filed as active); inconclusive = small, poorly fitted or top-dose-only effect, or another doubt; inactive = no such curve, though single readings can be large or run the other way;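 further: top concentration of the series not given in the record; plate controls included wells without enzyme; inactives centre near -10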
Target sequence (P15428 whole entry, looked up): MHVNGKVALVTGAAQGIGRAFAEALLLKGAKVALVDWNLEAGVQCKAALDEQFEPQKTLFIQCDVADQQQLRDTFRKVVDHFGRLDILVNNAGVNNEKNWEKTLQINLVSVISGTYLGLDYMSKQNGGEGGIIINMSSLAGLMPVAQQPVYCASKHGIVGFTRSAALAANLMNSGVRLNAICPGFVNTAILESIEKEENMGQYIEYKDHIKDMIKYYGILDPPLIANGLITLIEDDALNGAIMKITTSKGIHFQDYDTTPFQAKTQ
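20 nM HPGD preincubated 15 min at room temperature with compound in 50 mM Tris-HCl pH 8, 0.01% Tween 20. Started with 1 mM NAD+ and 30 uM prostaglandin E2; NADH fluorescence (360/450 nm) read 5 times over 30-s intervals, last minus first.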
* marks the source's active call; other numbers are inactive results. On the % scale 0 is the no-effect control and ±100 the full control effect; potency means the concentration at half of the fitted maximal effect. This is a subset (hit frequency here may not be typical).

Results for COCC(C)NC(=O)CCSc1nc(-c2ccc(OC)cc2)cc(C(F)(F)F)n1 (stereo not given) ?
HPGD inh: inconclusive

How did CSc1nc2c(c(=O)[nH]1)C(c1ccncc1)C(C(=O)OC(C)C)=C(C)N2 (stereo not given) do in these assays?
HPGD inh: -7%

How did CC(=O)c1cccc(NC(=O)CCOc2ccccc2)c1 do in these assays?
HPGD inh: -19%

What do the screens show for `CCNc1cc(Cl)nc(SC)n1`?
HPGD inh: -2%

What do the screens show for `COC(=O)COc1ccc(C2NC(=O)NC(c3ccccc3)=C2C(C)=O)cc1OC` (stereo not given)?
HPGD inh: -1%

Results for CCOC(=O)CC(NC(=O)c1ccco1)c1ccc(OC)cc1 (stereo not given) ?
HPGD inh: 6%

How did CC(NC(=O)c1ccc(F)cc1)C(c1cccs1)N1CCN(C)CC1 (stereo not given) do in these assays?
HPGD inh: -12%

How did O=C(NCc1ccc2c(c1)OCO2)C1CCC(CNS(=O)(=O)c2ccccc2)CC1 (stereo not given) do in these assays?
HPGD inh: -26%

What do the screens show for `Cc1ccc(C)c(C(=O)COC(=O)CCCC(=O)Nc2cc(C(F)(F)F)ccc2Cl)c1`?
HPGD inh: -15%

What do the screens show for `O=C(NC1CCCCCC1)C1CCCN(S(=O)(=O)c2cnc[nH]2)C1` (stereo not given)?
HPGD inh: -11%

What do the screens show for `Cc1cc(C)n2nc(SCC3COc4ccccc4O3)nc2n1` (stereo not given)?
HPGD inh: 7.1µM*

What do the screens show for `N=c1sccn1CC(=O)Nc1cc(Cl)ccc1Oc1ccccc1`?
HPGD inh: -15%

How did Cc1sc(NC(=O)C2CCCO2)c(C(N)=O)c1C (stereo not given) do in these assays?
HPGD inh: 28µM*

What do the screens show for `O=C(COC(=O)c1sc2ccccc2c1Cl)Nc1ncc(Cl)cc1Cl`?
HPGD inh: -13%

Results for C(=C\c1nc(N2CCCC2)c2ccccc2n1)/c1ccccc1 ?
HPGD inh: 1%

The final three compounds of the section before are carried over, then new ones follow:
How did Cc1sc(NC(=O)C2CCCO2)c(C(N)=O)c1C (stereo not given) do in these assays?
HPGD inh: 28µM*

What do the screens show for `O=C(COC(=O)c1sc2ccccc2c1Cl)Nc1ncc(Cl)cc1Cl`?
HPGD inh: -13%

Results for C(=C\c1nc(N2CCCC2)c2ccccc2n1)/c1ccccc1 ?
HPGD inh: 1%

What do the screens show for `COc1ccc2cc(-c3cc(C(=O)OCC(=O)NC4CCS(=O)(=O)C4)c4ccccc4n3)ccc2c1` (stereo not given)?
HPGD inh: inconclusive

How did Cc1c(C(c2ccc([N+](=O)[O-])cc2)c2c(C)n(C)n(-c3ccccc3)c2=O)c(=O)n(-c2ccccc2)n1C do in these assays?
HPGD inh: -9%

Results for Cc1cccc(N2CCN(C(=O)Cc3ccc(-n4c(=O)[nH]c5ccsc5c4=O)cc3)CC2)c1C ?
HPGD inh: -7%

How did CCCc1cc2c(=O)c(-c3ccccn3)coc2cc1OC do in these assays?
HPGD inh: -10%

What do the screens show for `O=C(O)c1nc(-c2ccccc2)n(-c2ccc(Cl)cc2)n1`?
HPGD inh: -3%

What do the screens show for `COCCn1c(Cc2ccccc2)nnc1SCC(=O)NC(C)C`?
HPGD inh: -7%

Results for CCn1c(CCCOc2ccc(Cl)cc2Cl)nnc1SCC(=O)Nc1cc(F)ccc1C ?
HPGD inh: -17%

Results for O=S(=O)(c1cccc(S(=O)(=O)N2CCCC2)c1)c1cccc(S(=O)(=O)N2CCCC2)c1 ?
HPGD inh: 6%

What do the screens show for `O=C(CN1C(=O)COc2ccccc21)N1CCc2ccccc2C1`?
HPGD inh: -13%

Results for O=C(CCCn1c(=O)[nH]c2cc(Cl)ccc2c1=O)NCC1CCCO1 (stereo not given) ?
HPGD inh: -15%

Results for COc1ccc(OCC(=O)N/N=c2\oc3c(OC)cccc3cc2C(N)=O)cc1 ?
HPGD inh: -13%

How did CCC(=O)Nc1cccc(NC(=S)NC(=O)c2cccc(C)c2)c1 do in these assays?
HPGD inh: -9%

What do the screens show for `CCOC(=O)c1ccc(NC(=O)Nc2ccc(F)cc2)cc1`?
HPGD inh: -7%

How did Cc1cc(C)c2c(=O)[nH]c(SCC(=O)Nc3ccccc3)nc2n1 do in these assays?
HPGD inh: -14%

What do the screens show for `Cc1ccc(C(=O)N/C(=C\c2ccc([N+](=O)[O-])cc2)C(=O)NCCc2ccccc2)cc1`?
HPGD inh: -3%

Results for Cc1ccc(NC(=O)c2cc(S(=O)(=O)N3CCOCC3)ccc2F)c(C)c1 ?
HPGD inh: -15%

How did Cc1ccc(C(=O)N/C(=C\c2cccnc2)c2nc3ccccc3[nH]2)cc1 do in these assays?
HPGD inh: inconclusive

What do the screens show for `CCOC(=O)c1cnn2c(N)c(C#N)nnc12`?
HPGD inh: -12%

What do the screens show for `Cc1ccc(CSc2nnc(CC(=O)Nc3ccc(C)cc3)n2C)cc1`?
HPGD inh: -14%

How did Cc1cc(N2CCN(c3ccccc3F)CC2)nc2cc(O)ccc12 do in these assays?
HPGD inh: inconclusive

What do the screens show for `C=CCC(NCc1ccccc1)c1ccc(Cl)cc1` (stereo not given)?
HPGD inh: 1%

How did Nc1nc(-c2ccc(Cl)c(Cl)c2)c(-c2ccncc2)s1 do in these assays?
HPGD inh: inconclusive

How did Cc1nc(NC(=O)c2oc3ccccc3c2C)sc1C(=O)N(C)C do in these assays?
HPGD inh: 32µM*

Results for CSc1ncccc1C(=O)OCc1ccc(C#N)cc1 ?
HPGD inh: -2%

Results for CCNC(=S)N/N=C/c1ccc(OCC(=O)Nc2ccc(OC)cc2)c(OC)c1 ?
HPGD inh: -13%

Results for CC(=O)c1cc(C(=O)Nc2ccccc2C(=O)O)oc1C ?
HPGD inh: inconclusive

How did CCn1cc(C(=O)OCC(=O)c2cc(C)n(-c3ccccc3F)c2C)c(=O)c2ccc(C)nc21 do in these assays?
HPGD inh: -2%

Results for O=C(Nc1ccc2c(c1)OCCO2)c1ccc(S(=O)(=O)N2CCCCC2)cc1 ?
HPGD inh: -14%

Results for Cc1noc(C)c1COC(=O)CCc1nc2ccccc2c(=O)[nH]1 ?
HPGD inh: -11%

Results for Cc1c(NC(=O)CSc2nc3ccccc3[nH]2)c(=O)n(-c2ccccc2)n1C ?
HPGD inh: -16%

What do the screens show for `CCN(CC)C(=O)CSc1nc2ccccc2o1`?
HPGD inh: -23%

Results for O=C(NCCN1CCOCC1)c1nn2c(c1Cl)NC(c1ccccc1)CC2C(F)(F)F (stereo not given) ?
HPGD inh: -16%

What do the screens show for `COCC(O)CSc1nc(C)[nH]c1[N+](=O)[O-]` (stereo not given)?
HPGD inh: -17%

How did CC(NC(=O)C1CCCN1S(=O)(=O)c1cccc2cccnc12)c1ccccc1 (stereo not given) do in these assays?
HPGD inh: -4%

What do the screens show for `Cc1ccc(N2C(=O)NC(NC(=O)c3ccc(Cl)cc3)(C(F)(F)F)C2=O)cc1` (stereo not given)?
HPGD inh: -4%

How did O=C(COC(=O)[C@H](Cc1ccccc1)N1C(=O)c2ccccc2C1=O)Nc1ccc2c(c1)OCO2 do in these assays?
HPGD inh: 1%

Results for COc1ccc(Cl)cc1NC(=O)CSc1nnc(COc2ccccc2)n1C ?
HPGD inh: -10%

What do the screens show for `COc1ccccc1NC(=O)C1=C(C)Nc2nnnn2C1c1cccc(C)c1` (stereo not given)?
HPGD inh: inconclusive

Results for Cc1ccc(-c2cc(-c3cccc(F)c3)n[nH]2)c(O)c1 ?
HPGD inh: -17%

How did CC(C)c1ccc2[nH]c(O)c(N=NC(=O)c3cccc(S(=O)(=O)Nc4ccccc4Cl)c3)c2c1 do in these assays?
HPGD inh: -12%

How did CCS(=O)(=O)Nc1ccc(C(=O)OC)cc1 do in these assays?
HPGD inh: 14µM*

What do the screens show for `CCCCNC(=O)/C(C#N)=C/c1ccc2c(c1)OCCO2`?
HPGD inh: inconclusive

What do the screens show for `CCOc1ccc2nc(NCCNC(=O)C3CC3)c(C)cc2c1`?
HPGD inh: inconclusive

Results for O=C(NCC12CC3CC(CC(C3)C1)C2)c1nn2cccnc2c1Cl ?
HPGD inh: 18µM*

What do the screens show for `Cc1onc(-c2ccccc2)c1C(=O)NCCc1ccc(Cl)cc1`?
HPGD inh: -14%

The final five compounds of the section above are carried over, then new ones follow:
How did CCS(=O)(=O)Nc1ccc(C(=O)OC)cc1 do in these assays?
HPGD inh: 14µM*

What do the screens show for `CCCCNC(=O)/C(C#N)=C/c1ccc2c(c1)OCCO2`?
HPGD inh: inconclusive

What do the screens show for `CCOc1ccc2nc(NCCNC(=O)C3CC3)c(C)cc2c1`?
HPGD inh: inconclusive

Results for O=C(NCC12CC3CC(CC(C3)C1)C2)c1nn2cccnc2c1Cl ?
HPGD inh: 18µM*

What do the screens show for `Cc1onc(-c2ccccc2)c1C(=O)NCCc1ccc(Cl)cc1`?
HPGD inh: -14%

What do the screens show for `FC(F)(F)c1cc(Sc2ccccc2)nc(-c2ccccn2)n1`?
HPGD inh: -3%

How did Oc1cccc(NC(=S)Nc2ccc(SC(F)F)cc2)c1 do in these assays?
HPGD inh: -15%

What do the screens show for `CCCn1c(-c2ccc(OC)cc2)nc2c(=O)n(C)c(=O)[nH]c21`?
HPGD inh: inconclusive

What do the screens show for `Cc1cc(C)c2cc3c(N)c(C(=O)Nc4c(C)[nH]c(=O)[nH]c4=O)sc3nc2c1`?
HPGD inh: inconclusive

Results for OC1C2COC(O2)[C@H](O)C1O (stereo not given in full) ?
HPGD inh: -13%

What do the screens show for `Cn1c(=O)c2c(nc(-n3ccnc3)n2C)n(C)c1=O`?
HPGD inh: -3%

What do the screens show for `CCOc1ccc(Cl)cc1CNCCNCC(C)O` (stereo not given)?
HPGD inh: -17%

How did CCN(CC)C(=O)CSc1nc2ccccc2c(=O)n1CCC(=O)NCc1ccc(F)cc1 do in these assays?
HPGD inh: inconclusive

How did CCNC(=S)Nc1ccc(C)c(Cl)c1 do in these assays?
HPGD inh: -20%

How did O=C(Cc1c(O)c2ccccc2[nH]c1=O)NCc1cccc(F)c1 do in these assays?
HPGD inh: -24%

Results for COCCNC(=O)c1onc(CSc2ccccc2F)c1C(=O)O ?
HPGD inh: -2%

How did CC1(C)Cc2nc3sc4c(SCC(=O)NCc5ccccc5)ncnc4c3cc2CO1 do in these assays?
HPGD inh: -25%

Results for CC(/C=C/c1ccccc1)=N\NC(=O)Cn1nc(C)cc1C ?
HPGD inh: -14%

Results for O=S1(=O)N[C@H]2CC[C@@H]3NS(=O)(=O)N[C@H]4CC[C@H](N1)N4S(=O)(=O)N23 ?
HPGD inh: -3%

How did CCOCCOCCC(C(=O)O)P(=O)(c1ccccc1)c1ccccc1 (stereo not given) do in these assays?
HPGD inh: 0%

What do the screens show for `Cc1[nH]nc2ncc(C(=O)c3cc(F)ccc3O)cc12`?
HPGD inh: inconclusive

Results for CCCN(CCC)C(=O)CC(c1ccccc1)c1ccc(C)cc1O (stereo not given) ?
HPGD inh: -26%

Results for CCOc1ccccc1OCC(=O)OCC(=O)Nc1ncc(Cl)cc1Cl ?
HPGD inh: -7%

What do the screens show for `O=[N+]([O-])c1cc(Br)c(O)c(/C=N/Nc2nnnn2-c2cccc3ccccc23)c1`?
HPGD inh: inconclusive

What do the screens show for `COCCCNC(=S)N1CCN(C(=O)c2ccco2)CC1`?
HPGD inh: -6%

How did COc1ccc(-n2cnnc2SCC(=O)Nc2cc(C(C)(C)C)nn2-c2ccccc2)cc1 do in these assays?
HPGD inh: 4%

How did C/C(Cn1cnc([N+](=O)[O-])n1)=N\NC(=O)c1ccccc1 do in these assays?
HPGD inh: 3%

Results for CN1C[N+]([O-])=C(c2ccccc2)C1(C)C ?
HPGD inh: -8%

Results for Cc1ccccc1N(C(=O)Cc1cccs1)C(C(=O)NCC1CCCO1)c1cccnc1 (stereo not given) ?
HPGD inh: -8%

What do the screens show for `O=C(Cc1c(F)cccc1Cl)N1CCCC1`?
HPGD inh: -14%

How did CC1CCCCN1C(=O)C12CCC(C)(/C(=N/O)C1)C2(C)C (stereo not given) do in these assays?
HPGD inh: -12%

How did COC(=O)C(C(C)=O)C(NC(=O)OC(C)(C)C)c1ccccc1 (stereo not given) do in these assays?
HPGD inh: -3%

How did COCC(=O)NCc1nc2ccccc2[nH]1 do in these assays?
HPGD inh: -7%

How did CCCOC(=O)Nc1cccc(C(C)=O)c1 do in these assays?
HPGD inh: 10µM*

What do the screens show for `COc1cc(OC)cc(C(=O)O/N=C(\N)c2ccncc2)c1`?
HPGD inh: -17%

Results for COc1ccc2c(c1)c(C(=O)N/N=C/c1ccc(OC)c(OC)c1)c(C)n2C ?
HPGD inh: -14%

What do the screens show for `COC(=O)CSc1nnc(-c2ccc(S(=O)(=O)NCc3ccccc3Cl)cc2)o1`?
HPGD inh: -9%

What do the screens show for `CCOC(=O)N1CCC(NC(=O)c2cc(C(=O)Nc3ccc(OCC)cc3)ccc2CO)CC1`?
HPGD inh: -6%

Results for CCOC(=O)c1cnn(-c2nc(-c3ccccc3)nc3c2COC(C)(C)C3)c1N ?
HPGD inh: -16%

What do the screens show for `CC=C(Cl)Cl`?
HPGD inh: 0%

How did COc1cccc(-c2[nH]nc3c2C(c2ccoc2)C(C#N)=C(N)O3)c1 (stereo not given) do in these assays?
HPGD inh: 28µM*

How did c1ccc2c(c1)C(=Nc1ccc(N=C3c4ccccc4-c4ccccc43)cc1)c1ccccc1-2 do in these assays?
HPGD inh: -4%

What do the screens show for `COC(=O)c1sccc1-n1cccc1C(=O)C(=O)N1CC(C)OC(C)C1` (stereo not given)?
HPGD inh: -15%

How did CC(C)(C)n1nnnc1C(c1ccc(Cl)cc1)N(Cc1cccnc1)Cc1ccco1 (stereo not given) do in these assays?
HPGD inh: 5%

2 compounds picked at random from the list so far, as already listed:
How did Cc1cc(N2CCN(c3ccccc3F)CC2)nc2cc(O)ccc12 do in these assays?
HPGD inh: inconclusive

What do the screens show for `Cc1ccc(CSc2nnc(CC(=O)Nc3ccc(C)cc3)n2C)cc1`?
HPGD inh: -14%
